# High-throughput results: PubChem, National Center for Advancing Translational Sciences (NCATS)
# Lassa entry inh: qHTS for Inhibitors of binding or entry into cells for Lassa Virus. Lassa virus pseudotype entry inhibition, cell reporter; control for the full effect not named in the record. Potency, µM (top dose mostly 37.9 µM), for the others: top-dose activity change, negative = inhibition, hits mostly inhibitors. actives 1.2% (n = 300,000); active means well fitted inhibition curve with a large enough effect; inconclusive means small, poorly fitted or top-dose-only effect, or effect the other way; inactive means flat fitted curve, though single readings scatter; tested in HEK293 cells; note: % is set by controls: 0 for no effect and ±100 for the full control effect; nearly all actives have a fitted effect of over 50% in size; luciferase read-out
# SARS PLP yeast: qHTS of Yeast-based Assay for SARS-CoV PLP. AID 485353, 2010. S. cerevisiae expressing SARS-CoV PLpro, growth rescue; control for the full effect not named in the record. Potency, µM (doses to about 32.9 µM), for the others: at the top dose activity, positive = growth rescue. actives 0.19% (n = 330,000); note: 0% is about no effect; nearly all actives have a fitted effect of over 55% in size; growth read by luminescence after 48 h
# 2A StopGo: High Throughput Screening for Foot and Mouth Disease Virus Antivirals; human cells with a luciferase reporter of 2A StopGo recoding; control for the full effect not named in the record; actives 1.2% (n = 410,000); Potency, µM (series often up to 57.9 µM), for the others: at the highest dose signal change, negative = less light; AID 1159524, 2015; active = well fitted falling curve with a large enough effect; inconclusive = small, poorly fitted or top-dose-only effect; inactive = no such curve, though single readings can be large or run the other way; tested in HEK293T cells; note: % is set by controls: 0 for no effect and ±100 for the full control effect; nearly all actives have a fitted effect of over 45% in size; luciferase light after 4 h
# RE007 growth inh: qHTS Assay for Inhibitors of the HIV-1 protein Vpr; S. pombe RE007 Vpr strain, BacTiter-Glo ATP luminescence, 24 h; control for the full effect not named in the record; Potency, µM (highest dose often 92.2 µM), for inactives: at the highest dose activity change, negative = less growth; actives 0.21% (n = 360,000); AID 651644, 2012; active = well fitted falling curve with a large enough effect; inconclusive = small, poorly fitted or top-dose-only effect; inactive = no such curve, though single readings can be large or run the other way;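 note: % is set by controls: 0 for no effect and ±100 for the full control effect; nearly all actives have a fitted effect of over 50% in size; the assay follows cell death caused by Vpr and the record does not say whether a fall means rescue or toxicity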
#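 Fission yeast RE007 carrying one integrated HIV-1 vpr copy, seeded at OD 0.01 in PMG+AL medium with 23 nL pinned compound. Grown 24 h at 30 degrees; viability read by BacTiter-Glo luminescence after 5 min.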
# Cruzain inh Det: qHTS Assay for Promiscuous and Specific Inhibitors of Cruzain (with detergent); Cruzipain (Trypanosoma cruzi), P25779; purified cruzain, Z-FR-AMC fluorescence, 0.01% Triton; Potency, µM, without a hit: max response, negative = inhibition, usual class: inhibitors; actives 0.43% (n = 200,000); active = well fitted curve in the direction sought with a large enough effect; inconclusive = small, poorly fitted or top-dose-only effect, or another doubt; inactive = no such curve, though single readings can be large; an effect the other way counts as inactive or inconclusive;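 note: plate controls were neutral wells for no effect and buffer without enzyme for full effect; nearly all actives have a fitted effect of over 40% in size; top concentration of the series not given in the record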
# Target sequence (P25779 123-467 limits assumed): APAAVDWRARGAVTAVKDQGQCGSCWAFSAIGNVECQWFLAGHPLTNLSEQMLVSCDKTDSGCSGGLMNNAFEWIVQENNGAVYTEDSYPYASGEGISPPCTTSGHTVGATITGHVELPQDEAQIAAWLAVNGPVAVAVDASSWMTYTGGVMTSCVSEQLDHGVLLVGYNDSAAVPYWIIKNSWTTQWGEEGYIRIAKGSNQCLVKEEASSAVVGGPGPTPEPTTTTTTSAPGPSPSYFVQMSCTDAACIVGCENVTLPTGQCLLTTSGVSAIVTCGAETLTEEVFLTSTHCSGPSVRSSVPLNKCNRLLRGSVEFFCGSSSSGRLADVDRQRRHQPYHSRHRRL
#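 Enzyme 1.5 nM, Z-FR-AMC 2 uM, NaOAc 100 mM pH 5.5, DTT 5 mM, Triton X-100 0.01%; 15 min RT compound preincubation; kinetic ex360/em450, 60 s delta.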
# Marburg entry inh: qHTS for inhibitors of binding or entry into cells for Marburg Virus. Marburg virus pseudotyped entry inhibition, cell reporter; control for the full effect not named in the record; about a third of the inactives were read at about 46 µM. Potency, µM (top dose mostly 37.8 µM), inactives show top-dose activity change, negative = inhibition, hits mostly inhibitors. actives 1.8% (n = 300,000); active = well fitted inhibition curve with a large enough effect; inconclusive = small, poorly fitted or top-dose-only effect, or effect the other way; inactive = flat fitted curve, though single readings scatter; tested in HEK293 cells; about a fifth of its hits are not listed in these tables; note: % is set by controls: 0 for no effect and ±100 for the full control effect; luciferase read-out
# Cruzain inh noDet: qHTS Assay for Promiscuous and Specific Inhibitors of Cruzain (without detergent); actives 2.3% (n = 200,000); purified cruzain, Z-FR-AMC fluorescence, no detergent; Potency, µM, for inactives: max response, negative = inhibition, actives largely listed as inhibitors; AID 1476, 2009; Cruzipain (Trypanosoma cruzi), P25779; active = well fitted curve in the direction sought with a large enough effect; inconclusive = small, poorly fitted or top-dose-only effect, or another doubt; inactive = no such curve, though single readings can be large; an effect the other way counts as inactive or inconclusive;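 note: plate controls were enzyme without inhibitor for no effect and buffer without enzyme for full effect; nearly all actives have a fitted effect of over 40% in size; top concentration of the series not given in the record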
#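 Detergent-free condition (0.00005% Triton X-100) in acetate buffer pH 5.5 with DTT. 1.5 nM enzyme and compound were pre-mixed 15 min, then 2 uM Z-FR-AMC substrate added; reaction progress from fluorescence change between first and third reads (60 s).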
# NS1 function inh: qHTS Assay for Inhibitors of Influenza NS1 Protein Function. actives 0.4% (n = 270,000). S. cerevisiae slowed by influenza A NS1, growth recovery by OD600. Potency, µM (series often up to 46.1 µM), for inactives: at the highest dose activity, positive = more growth. AID 2326, 2010; note: actives are rising curves; nearly all actives have a fitted effect of over 50% in size
#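 S. cerevisiae expressing influenza A NS1, grown in glucose, washed, then diluted 1:100 into pH 6.0 -URA galactose medium with 23 nl compound. Growth recovery read as OD600; NS1-free strain serves as control.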
# * = called active by the depositor; ? = inconclusive; . = no result given; [ ] = dose if it differs, or a comment. Unless noted, calls come from the whole dose curve; as a rule, active means well fitted rising curve with a large enough effect; inconclusive means small, poorly fitted or top-dose-only effect; inactive means no such curve, though single readings can be large or run the other way. Potency is the fitted concentration of half-maximal effect.
SMILES,Lassa entry inh,SARS PLP yeast,2A StopGo,RE007 growth inh,Cruzain inh Det,Marburg entry inh,Cruzain inh noDet,NS1 function inh
CC(C)Cc1nnc(NC(=O)CCC(=O)NC2CCCCCCC2)s1,.,-4%,4%,3%,.,.,.,-14%
COc1ccc(C(=O)C2CCCN(C(=O)c3ccc(F)cc3)C2)cc1OC (stereo not given),?,-5%,-24%,-1%,.,-26%,.,-22%
Cc1ccc(/C=N/NC(=O)c2cccs2)cc1[N+](=O)[O-],-2%,-4%,41%[activator],9%,0.8%,23%,-2%,-41%
O=C(COC(=O)c1n[nH]c2ccccc12)Nc1ccccc1Br,3%,?,54%[activator],2%,.,?,.,.
CCc1cccc(CC)c1NC(=O)NC1CCCCC1,16%,-11%,-23%,18%,2.4%,?,?,-3%
COc1cccc(NC(=O)N2CCC(n3nnc4ccccc43)CC2)c1,8%[46.1 µM],-1%,14%,-1%,.,-25%[46.1 µM],.,0%
CCC(=O)Nc1nn(C)c2nc3c(C)cccc3cc12,-2%,-12%,12%,-3%,-5.4%,-16%,-8%,-9%
Cc1nnc(SCC(=O)N/N=C/c2cc(Cl)c(O)c(Cl)c2)s1,16%,-16%,-13%,-23%,-8.8%,?,-2%,6%
O=C(NC1CCCC1)C1CCC(CNS(=O)(=O)c2ccccc2)CC1 (stereo not given),.,-4%,-13%,-1%,.,.,.,-1%
Cc1c(C(=O)NCC2CCCO2)oc2c(Cl)cccc12 (stereo not given),6%[46.1 µM],-1%,-5%,-23%,.,16%,.,.
CN(CC(=O)Nc1ccc(OC(F)(F)F)cc1)S(=O)(=O)c1ccc2c(c1)CCC(=O)N2,-5%[46.1 µM],.,?,.,0.0%,5%[46.1 µM],-2%,.
COCCNC(=O)CSc1ccccc1C(=O)O,1%,2%,-2%,-17%,.,-18%[46.1 µM],.,.
CCCC1O[C@@H]2CC3C4CCC5=CC(=O)C=C[C@]5(C)C4C(OC(C)=O)C[C@]3(C)[C@]2(C(=O)COC(C)=O)O1 (stereo not given in full),?,-9%,?,-8%,-4.8%,?,?,-1%
O=C(NCCc1ccccn1)c1cc2ccccc2o1,-18%,5%,24%,7%,.,18%[46.1 µM],.,0%
Oc1ccccc1CN(CCc1ccccc1)Cc1ccccc1,.,-17%,-28%,9%,.,.,.,-77%

# Overlap with the part before: four entries; new compounds follow.
SMILES,Lassa entry inh,SARS PLP yeast,2A StopGo,RE007 growth inh,Cruzain inh Det,Marburg entry inh,Cruzain inh noDet,NS1 function inh
COCCNC(=O)CSc1ccccc1C(=O)O,1%,2%,-2%,-17%,.,-18%[46.1 µM],.,.
CCCC1O[C@@H]2CC3C4CCC5=CC(=O)C=C[C@]5(C)C4C(OC(C)=O)C[C@]3(C)[C@]2(C(=O)COC(C)=O)O1 (stereo not given in full),?,-9%,?,-8%,-4.8%,?,?,-1%
O=C(NCCc1ccccn1)c1cc2ccccc2o1,-18%,5%,24%,7%,.,18%[46.1 µM],.,0%
Oc1ccccc1CN(CCc1ccccc1)Cc1ccccc1,.,-17%,-28%,9%,.,.,.,-77%
NC(=O)CN1C(=O)C(O)(CC(=O)c2ccccc2O)c2ccccc21 (stereo not given),.,14%,-5%,0%,-4.4%,.,-2%,3%
CC(C)(C)NC(=S)N/N=C/c1cc(Br)c(O)c(Br)c1,.,0%,?,1%,.,.,.,-40%
CC(=O)N(Cc1cc(=O)[nH]c2ccccc12)c1ccc(C)cc1C,4%,0%,-10%,-11%,.,0%[46.1 µM],.,-1%
Cc1ccccc1NC(=O)CCN1CCCCCC1,2%,.,-11%,-16%,.,-4%,.,0%
COc1ccc(N2CCN(c3ncnc4scc(-c5ccc(F)cc5)c34)CC2)cc1,-11%,-9%,28µM*,-2%,.,?,.,-5%
COC(=O)[C@@H]1CCCN1C(=O)c1cc(COc2cccc3cccnc23)on1,-15%,-5%,-19%,3%,.,19%,.,-6%
Cc1nn(C)cc1CNC(=O)c1cccc(Br)c1,22%,0%,23%,4%,-0.3%,-4%,-11%,3%
Cc1ccc(-c2noc(CC(c3ccccc3)c3ccccc3)n2)cc1,?,-2%,-29%,12%,-2.1%,-17%,-13%,-13%
CCOC(=O)c1[nH]c(C)c(/C(O)=C2\C(=O)C(=O)N(CCN(C)C)C2c2ccncc2)c1C (stereo not given),12%,2%,0%,12%,3.7%,17%,-3%,-1%
CC(=O)c1cccc(NC(=O)C2CC(c3ccc(F)cc3)=NO2)c1 (stereo not given),-10%,-12%,1%,0%,4.5%,3%,-3%,1%
CCCn1nnnc1SCC(=O)N1CCN(C(=O)c2ccco2)CC1,1%,0%,-12%,-14%,2.4%,-1%,-7%,11%
O=C1c2cccnc2C(=O)N1Cc1ccc2c(c1)OCO2,16%,0%,-3%,0%,-5.5%,5%,-14%,-22%
O=C(/C=C/N1CCOCC1)c1ccc(-c2ccccc2)cc1,-20%,-16%,21%,-19%,-11%,?,-17%,-44%
COc1cccc(OC)c1C(=O)OCC(=O)NCC(C)C,9%[46.1 µM],2%,-6%,2%,.,13%[46.1 µM],.,-5%
COC(=O)CCC(=O)Nc1sc(C)c(C)c1C(N)=O,-1%,4%,-4%,-18%,-3.2%,13%,-21%,-44%
CC(C)(C)C(=O)Nc1nnc(COc2ccc(Cl)cc2)s1,3%,-2%,21%,-1%,.,9%,.,-4%
COC(=O)c1cc(CSc2nnc(NC3CCCCC3)s2)oc1C,?,-13%,?,-17%,-4.5%,?,-6%,-57%
O=[N+]([O-])c1ccc(S(=O)(=O)NCC(c2ccco2)N2CCc3ccccc3C2)cc1 (stereo not given),?,-2%,11%,-8%,.,19%,.,.
Cc1ccc(C23CCC(=O)N2C(C(=O)O)CS3)c(C)c1 (stereo not given),0%,-1%,77%[activator],0%,.,-16%[46.1 µM],.,-3%
Cc1ccc(C2NC(=O)NC(O)(C(F)(F)F)C2C(=O)c2cccs2)o1 (stereo not given),-13%,0%,15%,9%,-4.4%,2%,4%,-4%
CC(=O)N/C(=C\c1ccc(F)cc1)C(=O)NC(Cc1ccccc1)C(=O)O (stereo not given),.,0%,-15%,6%,.,.,.,2%
CCCCn1c(N)c(N(CCOC)C(=O)COC(=O)c2ccccc2OCC)c(=O)[nH]c1=O,18%,-1%,-10%,-3%,.,?,.,8%
Cc1nn(-c2ccccc2)c2c1C(c1ccc(Cl)cc1)N(c1ccccc1)C(=O)N2 (stereo not given),?,-34%,-28%,6%,-3.7%,-31%,-10%,4%
COc1ccc(OCc2ccc(-c3nc(C#N)c(N4CCC(C(N)=O)CC4)o3)o2)cc1,-9%[46.1 µM],.,-15%,.,-11%,2%[46.1 µM],?,.
Cc1ccc(SCCOCCN2CC(C)OC(C)C2)cc1 (stereo not given),-2%[46.1 µM],0%,-9%,9%,.,?,.,3%
Cc1ccc(/C=N\NC(=O)C2COc3cc4ccccc4cc3O2)o1 (stereo not given),-3%,-11%,0%,?,-12%,5%[46.1 µM],-2%,.
O=C(CN1c2ccccc2Sc2ccccc21)N/N=C/c1ccc([N+](=O)[O-])cc1,?,-3%,-19%,4%,.,8.9µM*,.,15%
Cc1cccc(NC(=O)Cn2nnc(-c3cccs3)n2)c1C,3%,6%,11%,19%,5.2%,1%,-6%,-43%
CCN(CC)S(=O)(=O)c1cc(C(=O)Oc2cccc(-c3cnc4ccccc4n3)c2)ccc1OC,-6%,3%,24%,1%,-3.2%,?,13%,13%
CCc1ccccc1NC(=O)C1=CC(c2ccc(OC)c(OC)c2)=NS(=O)(=O)N1C,5%[46.1 µM],7%,?,-3%,-1.9%,?,10%,6%
CCOC(=O)N1CCN(c2ccc(F)cc2[N+](=O)[O-])CC1,-11%,11%,-12%,-6%,-4.7%,-28%,2%,-14%
CC(=O)N1CCN(c2ccc(NC(=O)c3cccc([N+](=O)[O-])c3)cc2)CC1,.,-3%,31%[activator],0%,.,.,.,16%
COc1ccccc1NC(=O)Nc1nc(CC(=O)Nc2ccc(F)cc2)cs1,10%,0%,-3%,-7%,.,-22%,.,.
Nc1cc(N)nc(SCC(=O)NCC2CCCO2)n1 (stereo not given),2%,-3%,-3%,-4%,1.0%,8%,-5%,2%
Cn1ncc2c(NCc3ccccc3)nc(NCCCO)nc21,.,-8%,-6%,-6%,.,.,.,3%
CC(=O)c1c(C)[nH]c(C(=O)Nc2ccc(C)cn2)c1C,2.1µM*,2%,-85%,-23%,-1.7%,2µM*,-5%,-8%
CC(=O)Nc1ccccc1OCC(=O)NC(C)c1ccc(F)cc1 (stereo not given),-2%,15%,?,1%,4.1%,-6%,2%,-13%
CCS(=O)(=O)Nc1ccc(C2=NN(C(=S)Nc3ccccc3)C(c3ccco3)C2)cc1 (stereo not given),?,1%,28%,-4%,-11%,?,?,-3%

# Reformatted: 2 of the compounds above.
# Order of results: Lassa entry inh, SARS PLP yeast, 2A StopGo, RE007 growth inh, Cruzain inh Det, Marburg entry inh, Cruzain inh noDet, NS1 function inh
> CCOC(=O)N1CCN(c2ccc(F)cc2[N+](=O)[O-])CC1
→ -11%, 11%, -12%, -6%, -4.7%, -28%, 2%, -14%
> COc1ccccc1NC(=O)Nc1nc(CC(=O)Nc2ccc(F)cc2)cs1
→ 10%, 0%, -3%, -7%, ., -22%, ., .

# The order is random. Share with any hit: about 4.8%.
